# Screens: PubChem BioAssay, National Center for Advancing Translational Sciences (NCATS)
# Vaccinia Venus: inhibitors of vaccinia virus (Venus reporter); Vaccinia virus Venus reporter expression, fluorescence; Potency, µM (top dose mostly 36.5 µM), for inactives: at the highest dose activity change, negative = inhibition, usual class: inhibitors; hit rate 0.46% among 330,000; AID 720580; active means well fitted inhibition curve with a large enough effect; inconclusive means small, poorly fitted or top-dose-only effect; inactive means no such curve, though single readings can be large or run the other way; tested in A549 cells; also: nearly all actives have a fitted effect of over 30% in size; inactives centre near -10
# VACV mCherry inh: inhibitors of vaccinia virus infection (mCherry reporter signal); Potency, µM (top dose mostly 36.5 µM), for the others: top-dose activity change, negative = inhibition, hits mostly inhibitors; Vaccinia virus mCherry reporter infection, fluorescence; about a quarter of the inactives have no number; hit rate 0.63% among 310,000; active = well fitted inhibition curve with a large enough effect; inconclusive = small, poorly fitted or top-dose-only effect; inactive = no such curve, though single readings can be large or run the other way; tested in A549 cells; also: nearly all actives have a fitted effect of over 35% in size; inactives centre near -10
# * hit, by the source's call; i = inactive; ? = inconclusive; / = no result given; [ ] = dose if it differs, or a comment. % is scaled to controls: 0 for no effect and ±100 for the full control effect; potency is read from the fitted curve at half-maximal effect.
SMILES,Vaccinia Venus,VACV mCherry inh
CC(C)c1csc(CN2CCCC(CCC(=O)NCc3ccccc3F)C2)n1 (configuration not stated),?,-30%
CCCCN(CC)CCCNC(=O)c1nn(C)c2c1CSc1ccccc1-2,-5%,-9%
O=c1c(-c2ccco2)[n+]([O-])c2ccccc2n1OCc1ccccc1,-10%,?
CC(=O)c1cccc(NC(=O)CCCOc2ccc(C)cc2)c1,-8%,-10%
N#CCCn1cc(C(CC(=O)c2ccc(Br)cc2)C(=O)O)c2ccccc21 (configuration not stated),-4%,18%
Cc1cc(O)c(C(=O)/C=C/c2ccc(Cl)cc2)c(=O)o1,7%,-8%
Cc1ccc(C)c(OCCn2cc(C(=O)c3cccs3)c3ccccc32)c1,-19%,-13%
CC(C)N1CCc2c(sc(NC(=O)c3cc(-c4cccs4)nc4ccccc34)c2C(N)=O)C1,?,?
CC[C@]12c3[nH]c4cc(-c5ccco5)ccc4c3CCN1C(=O)[C@@H](CC(=O)NC/C=C(\C)CCC=C(C)C)C[C@@H]2C(=O)N1CCN(C(=O)C2CC2)CC1,?,?
CCC(C)c1ccc(S(=O)(=O)N2CCN(C(=O)CN3C(=O)NC(C)(C4CC4)C3=O)CC2)cc1 (configuration not stated),-13%,-6%
CCOC(=O)CCCN1CC(O)=C(c2nc(-c3ccc(Cl)cc3)cs2)C1=N,1%,-2%
CCCCn1nnnc1C(c1cc2ccccc2o1)N1CCN(CC(=O)N2CCCC2)CC1 (configuration not stated),12%,i
Cc1ccc2c(c1)C(=O)C(=O)N2c1ccc(C(F)(F)F)cc1,-1%,?
CC(SCC(=O)Nc1ccc(S(=O)(=O)N2CCCCC2)cc1)C(=O)O (configuration not stated),-6%,/
Cc1ccc(Nc2nc(-c3ccc(S(=O)(=O)N4CCOCC4)cc3)cs2)cc1Cl,?,?
NNC(=O)c1c[nH]c2ccc(OCc3ccccc3)cc12,-17%,-24%
CCOC(=O)C1CCN(C(=O)c2ccc3c(c2)sc2nc(-c4ccc(OC)cc4)cn23)CC1,-6%,2%
COc1cc(C)c(CNc2cc(C)cc(C)c2)cc1C,-8%,2%
CCc1cc(=O)[nH]c(SCc2nc(-c3cccc(Cl)c3)no2)n1,-2%,-13%
CC(C)CN(C(=O)CN(C)C(=O)Cc1ccc(Cl)cc1)c1c(N)n(CC(C)C)c(=O)[nH]c1=O,-1%,-13%
CCOc1ccc2nc(N3CCCC(C(=O)NCCCN4CCOCC4)C3)sc2c1 (configuration not stated),-14%,i
Cc1cc(NC(=O)C2Oc3ccccc3OC2C)no1 (configuration not stated),-8%,-4%
CC(Cc1cccs1)NC(=O)Nc1cccc(Cl)c1 (configuration not stated),?,?
COc1ccc(/C=N/N2CCN(C3c4ccccc4-c4ccccc43)CC2)cc1OC,-4%,i
Cc1ccc(S(=O)(=O)NCC(=O)OCC(=O)N2N=C(c3ccc(Cl)cc3)CC2c2ccco2)cc1C (configuration not stated),?,-10%
COc1ccc(CN2C(=O)CN(S(C)(=O)=O)CC2(C)C(=O)NC(C)C)cc1OC (configuration not stated),-12%,-16%
CCOc1ccc(CSC(=N)N)cc1[N+](=O)[O-],?,?
CCc1cccc(NC(=O)CCc2nc3sc4c(c3c(=O)[nH]2)CCCC4)c1,-5%,-1%
Cc1ccc(CNC(=O)c2ccc(CSCc3c(F)cccc3Cl)o2)cc1,6%,-2%
NCCCCCCNS(=O)(=O)c1ccc2c(Cl)cccc2c1,-16%,20%
Nc1c(C(=O)Nc2ccccc2)nnn1Cc1ccc(F)cc1Cl,-16%,-15%
Cc1oc(-c2cccc(Cl)c2)nc1CN1CCC(C(=O)NC(C)C)CC1,-11%,-9%
CCOC(=O)CSc1snnc1-c1ccccc1,-10%,/
CCOC(=O)N1CCN(C(=O)CSc2nc3c([nH]c4ccccc43)c(=O)n2CCOC)CC1,-1%,-10%
Cc1oc(-c2ccccc2F)nc1CS(=O)(=O)CC(=O)NCc1ccccc1Cl,-24%,-9%
CC(=O)c1cccc(Nc2ccc3cc(S(=O)(=O)N4CCCC4)ccc3n2)c1,-6%,-11%
O=C(NC(=O)c1ccc(C(F)(F)F)cc1)Nc1ccc(-c2cnco2)cc1,-4%,-10%
Cn1nc(-c2ccccc2)c2ncc(C(F)(F)F)cc21,-12%,-4%
COc1nc(NC23CC4CC(CC(C4)C2)C3)nc(OC)n1,?,/
C=C[C@@]1(C)C[C@H](OC(=O)CSC(C)(C)CNC(=O)[C@@H](N)C(C)C)[C@@]2(C)C(C)CC[C@@]3(CCC(=O)[C@@H]32)[C@H](C)[C@H]1O (some centres not stated),?,?
Cc1ccc2c(=O)cc(C(=O)Nc3sc4c(c3C(=O)NCc3cccnc3)CCCC4)oc2c1C,-7%,-7%
CC12CCC(=O)N1C(C(=O)Nc1ccccc1N1CCOCC1)CS2 (configuration not stated),-3%,-14%
COc1ccccc1NC(=O)c1cc2c(n(-c3ccc(C)cc3)c1=O)CC(C)(C)CC2=O,-12%,-13%
CCc1cc2c(=O)c(-c3nc4ccccc4n3C)c(CCCC(=O)O)oc2cc1OC(=O)C(C)(C)C,-7%,-2%
COc1ccc(N2CCN(C(=O)c3oc4c(c3C)C(=O)CCC4)CC2)cc1,-16%,i
c1ccc2c(c1)oc1c(N3CCOCC3)ncnc12,2%,/
COc1ccc(N2CCN(C(=O)C(OC(C)=O)c3ccccc3)CC2)cc1 (configuration not stated),-11%,-16%
CN1CCN(C(c2ccccc2)c2nnnn2C(C)(C)C)CC1 (configuration not stated),-1%,-9%
CSCCC(CO)NC(=O)OCc1ccccc1 (configuration not stated),-6%,-18%
Nc1nc(N)c2[nH]cnc2n1,-23%,-19%

# Further structures.
SMILES,Vaccinia Venus,VACV mCherry inh
COc1ccc(-c2cccc(NS(=O)(=O)c3cc(C(F)(F)F)ccc3Cl)c2)nn1,-6%,-6%
Nc1ccnn1Cc1cccs1,-5%,i
Cc1ccc(/C(O)=C/C(=O)C(=O)NC23CC4CC(CC(C4)C2)C3)cc1,-13%,-13%
COC(=O)c1sc(=S)sc1C(=O)OC,-11%,i
Cc1cc(NC(=O)Cc2ccccc2)nc2c1c(=O)oc1ccccc12,-24%,i
Cc1[nH]c2ccccc2c1CCNC(=O)c1ccc2c(c1[N+](=O)[O-])C(=O)c1ccccc1C2=O,127%[activator],1%
CCC(CO)Oc1cc(NCc2ccc(C(C)(C)C)cc2)c2ncn(C(C)C)c2c1 (configuration not stated),?,13µM*
Cc1cc(C)n2c(SCc3nnc(-c4cccs4)o3)nnc2n1,-10%,-3%
COCCNC(=O)C1(C)CCCN(C(=O)c2c(-c3ccccc3)noc2C)C1 (configuration not stated),-7%,31%[activator]
Cc1cc(NC(C)C)n2c(nc3ccccc32)c1C#N,-9%,-13%
C=CCn1nnnc1-c1cccc(Cl)c1,-8%,-5%
CSc1ccc(Cn2c(C)c(C(=O)NCc3ccc4c(c3)OCCO4)sc2=O)cc1,-6%,i
Cc1ccc(NC(=O)CCS(=O)(=O)c2ccccc2)cc1S(=O)(=O)N1CCOCC1,-12%,-11%
CC(=O)c1c(C)n(CCCOC(C)C)c2ccc(O)cc12,-12%,-22%
c1ccc(Nc2nc(N3CCOCC3)nc(N3CCOCC3)n2)cc1,?,/
Cc1c(C(=O)C(=O)N2c3ccccc3CC2C)c2ccccc2n1C (configuration not stated),?,-24%
Cc1cccc(NC(=O)c2ccc3c(c2)OCCO3)c1C,4%,-8%
Cc1ccc(OCC(=O)N2CCN(C3CCC(c4ccccc4)CC3)CC2)cc1 (configuration not stated),-17%,-20%
C[C@H]1COC(=O)[C@@H](Cc2ccc(F)cc2)CC/C=C/C[C@@H](CC(=O)N(CCO)Cc2ccccc2)C(=O)N1,?,i
COc1cccc(CNC(=O)c2cc3c(C)nc4ccccc4c3o2)c1,?,?
CCCCCNC(=O)Cn1c(=O)c2c(ncn2CC(C)C)n(Cc2ccccc2)c1=O,-5%,?
C=CCn1cnc2c(nnn2-c2cc(C)cc(C)c2)c1=O,-21%,-10%
CC1(C(=O)Nc2cccc3cccnc23)CCN1C(=O)CC1CC1 (configuration not stated),10%,-10%
CC(=O)Nc1ccc(S(=O)(=O)NNC2=NS(=O)(=O)c3ccccc32)cc1,-14%,i
CCc1cccc(CC)c1NC(=O)CSc1nc2ccc(N3C(=O)C4C(C3=O)[C@H]3C=C[C@@H]4C3)cc2s1 (some centres not stated),?,?
CCCn1c(N)c(N2CCCCC2)c(=O)n(CC(=O)Nc2ccccc2)c1=O,95%[activator],-12%[1.46 µM]
O=C(Nc1ccc(Br)cc1)c1ccc(F)c(S(=O)(=O)N2CCN(c3ccccn3)CC2)c1,-30%,-11%
Cn1c(SCC(=O)Nc2nc3ccccc3s2)nnc1-c1ccccc1,-11%,i
COc1ccc2cc(OC)c(C(=O)N3CCOCC3)cc2c1,-6%,i
CN(CC(=O)Nc1ccc(Cl)c(C(F)(F)F)c1)C(=O)c1cnccn1,-9%,i
Cc1ccc(NS(=O)(=O)c2ccccc2F)cc1S(=O)(=O)N1CCCCCC1,-10%,-8%
Cc1c(O)ccc2c(CN3CCN(C/C=C/c4ccccc4)CC3)cc(=O)oc12,-28%,-7%
Cn1cc(Cl)c(C(=O)OCC(=O)Nc2ccccc2)n1,0%,i
CC(=O)Oc1ccc(/C=c2\sc3ncnn3c2=O)cc1,-4%,-18%
Nc1c2c(nc3ccccc13)N(c1ccccc1)CC2,-23%,?
CCC1CCc2sc(C(=O)OCC(=O)N(CCOC)c3c(N)n(Cc4ccccc4)c(=O)[nH]c3=O)cc2C1 (configuration not stated),-30%,-22%
Cc1cc(C=O)cc(C)c1[N+](=O)[O-],-5%,-14%
COc1cc(Cl)c(NS(=O)(=O)c2ccc(-c3cnc(C4CC4)o3)cc2)c(OC)c1,?,?
Cc1ccc(N2C(=O)N(CC(=O)Nc3cc(Cl)ccc3C)C(=O)C2C)cc1 (configuration not stated),-29%,?
COc1ccc(C2CC23N=C(c2ccccc2)OC3=O)cc1 (configuration not stated),-18%,i
C=CCSc1nc2c(cc1C#N)CCC2,-6%,i
Cc1cccc2cc(CN(Cc3nnnn3Cc3ccccc3)C3CCCC3)c(=O)[nH]c12,-24%,-7%
COCCNC(=O)CCn1c(=O)[nH]c2cc(OC)c(OC)cc2c1=O,0%,-8%
O=C(COc1ccc(F)cc1Br)N1CCN(c2ncccn2)CC1,-10%,-11%
O=C1Nc2ccc3c(c2C1=Cc1cc2c(cc1Br)OCO2)OCO3,-18%,?
Cc1occc1C(=O)N/N=C/c1cccs1,1%,2%
CCC(=O)Nc1ccc(C(=O)CSc2nc3ccccc3[nH]2)cc1,11%,-12%
CC1CCCC(NC(=O)C2COc3ccccc3O2)C1C (configuration not stated),-12%,-18%
CC(=O)Nc1ccc(S(=O)(=O)NCCC(=O)Nc2ccc(C)c(Cl)c2)cc1,-10%,i
COc1ccc(CC2C(=O)NC(=O)N(c3ccccc3)C2=O)c(OC)c1 (configuration not stated),-5%,0%

# Later entries
SMILES,Vaccinia Venus,VACV mCherry inh
CN(C)S(=O)(=O)c1ccc(Cl)c(C(=O)Nc2ccc(S(=O)(=O)N3CCOCC3)cc2)c1,-18%,-24%
CC(C)COCc1ccc(O)c2ncccc12,?,10µM*
O=C(c1ccc([N+](=O)[O-])cc1[N+](=O)[O-])N1CCCC1,-4%,-25%
COc1cc(OC)c(S(=O)(=O)Nc2ccc(C(=O)O)cc2)cc1S(=O)(=O)Nc1ccc(C(=O)O)cc1,0%,i
C=CC[C@@H](Cc1ccc(F)cc1)C(=O)OC[C@H]1CCCN1C(=O)[C@H](CC=C)CC(=O)N(CCO)Cc1ccccc1,?,i
CCCOC(=O)c1c(NC(=O)CCCn2nc([N+](=O)[O-])c(Cl)c2C)sc(C(=O)OC)c1C,-9%,i
CCc1nc2c(OCc3ccc(OC)cc3)cccn2c1N(C)C(=O)c1ccncc1,-5%,0%
COC(=O)c1ccc(COc2ccc(C=O)cc2OC)o1,-1%,5%
COCCNC(=O)CN1C(=O)COc2ccc(S(=O)(=O)N3CCCC3)cc21,-8%,0%
COc1ccccc1-n1c(-c2ccccc2F)nc2ccccc2c1=O,10%,i
CC(=O)c1ccc(Nc2ccc(-c3ccccc3F)nn2)cc1,?,?
O=[N+]([O-])c1ccc(/C=C2\CCC(C3=CCCC3)=C2N2CCOCC2)cc1,-21%,?

# No enrichment for hits; any-hit rate near 0.87%.
